Screens deposited in PubChem BioAssay by several laboratories.
CSC inhib = blocks cancer stem cells; cancer stem cell-like cells viability, luminescence; inhibition, % at 7.5 µM; hit rate 1.1% among 300,000; AID 2717;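 active = mean at 75% or more and at least half the replicates too; tested in HMLE shEcad cells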;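 note: 0% = median of negative and 100% = median of positive control wells; the first replicate is given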
Yeast UUG start = yeast start codon fidelity modulation. activity score, % at 18.7 µM. hit rate 0.13% among 350,000. S. cerevisiae UUG-firefly luciferase reporter, luminescence/redox ratio. AID 602363;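 active = replicate mean at a twofold rise or more, about +100% in these data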;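 note: firefly luciferase made from a UUG start codon reports start codon fidelity; reporter light over untreated wells divided by growth signal over untreated wells; some hits fall short of that in this replicate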
eIF4H inh = inhibitors of RNA binding by human eIF4H; eIF4H fluorescence polarization binding assay; Q15056; AID 2012; inhibition, % at 35 µM; hit rate 0.94% among 290,000;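 active = 50% or more with normal probe brightness, or confirmed in later tests; about a fifth of its hits are not listed in these tables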;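 note: calls also rest on retests at 20 µM and on dose response follow-up; 0% = protein and probe with vehicle and 100% = probe without protein; strong numbers were not always called active; many hits fall short of the cut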
MT1-MMP act inh = MT1-MMP (human) activation inhibition; P50281; HT1080 RFP-PRO-GFP cells, GFP/RFP ratio fluorescence, overnight; percent of plate control window, DMSO zero; hit rate 0.061% among 360,000; GFP/RFP ratio change, % at 20 µM; AID 651647;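 active = GFP/RFP ratio change of at least 30% with cell ATP level not reduced by more than half and red fluorescence within 50% of control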; note: strong numbers were not always called active
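Assay system: HT1080 RFP-PRO-GFP cells | Dosing: 20 µM single dose, 1% DMSO | Incubation: Cells overnight before dosing, compound overnight, 37 °C, 5% CO2 | Evaluation: GFP/RFP fluorescence ratio | Control set: DMSO-only wells and HT1080 RFP-L50D-GFP cell wells as references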
PABP polyA inh = blocks human PABP binding to poly(A) RNA; inhibition, % at 35 µM; AID 2014; fluorescence polarization; hit rate 1% among 290,000;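 active = 50% or more with normal probe brightness, or confirmed in later tests; about a fifth of its hits are not listed in these tables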;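 note: calls also rest on retests at 20 µM and on dose response follow-up; controls were probe without protein and protein plus probe with vehicle; some compounds called inactive have numbers as strong as hits; many hits fall short of the cut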
Target sequence (P11940 whole entry, looked up): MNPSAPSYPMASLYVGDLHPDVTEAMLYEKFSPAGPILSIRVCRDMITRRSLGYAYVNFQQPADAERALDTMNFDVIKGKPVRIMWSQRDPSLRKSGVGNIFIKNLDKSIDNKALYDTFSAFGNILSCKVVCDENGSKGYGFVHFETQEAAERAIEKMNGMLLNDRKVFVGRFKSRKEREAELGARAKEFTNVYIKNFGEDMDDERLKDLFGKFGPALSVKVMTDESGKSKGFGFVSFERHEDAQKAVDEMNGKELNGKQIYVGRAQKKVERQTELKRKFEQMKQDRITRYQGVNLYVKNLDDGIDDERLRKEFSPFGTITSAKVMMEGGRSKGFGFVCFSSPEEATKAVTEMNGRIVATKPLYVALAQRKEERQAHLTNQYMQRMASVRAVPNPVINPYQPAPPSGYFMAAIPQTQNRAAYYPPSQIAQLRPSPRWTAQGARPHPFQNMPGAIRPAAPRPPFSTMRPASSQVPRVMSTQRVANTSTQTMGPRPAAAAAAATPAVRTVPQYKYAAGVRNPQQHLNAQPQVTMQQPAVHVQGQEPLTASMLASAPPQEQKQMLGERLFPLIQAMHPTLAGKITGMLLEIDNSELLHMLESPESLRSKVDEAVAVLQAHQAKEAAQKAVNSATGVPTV
HIV Env fusion = blocks HIV Env-driven cell-cell fusion. HeLa-JRFL Env/CEM21 cell fusion, luciferase. inhibition, % at 12.3 µM. hit rate 1.1% among 360,000. AID 651610;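 active = mean replicate inhibition score of at least 50 and every replicate individually at or above 50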;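 note: 0% = plate neutral controls and 100% = maraviroc near 300 nM; one replicate is shown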
Rce1 inh = yeast Ras-converting enzyme inhibition. Q03530. yeast membranes, quenched prenylated peptide cleavage fluorescence. AID 2563. hit rate 0.27% among 290,000. calls only;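 active = fall in fluorescence gain of 50% or more versus controls, with final raw signal at or below 3038400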;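 note: plate controls were neutral control wells for no effect and wells lacking membranes for full effect; tested at 10 µM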
eIF4H inh retest = second read-out of eIF4H inh, no call of its own (marks repeat the call); inhibition, %; compound at 20 µM; confirmation average;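 mean of two retest wells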
PABP polyA inh retest = recorded beside PABP polyA inh, whose call it bears; inhibition, %; compound at 20 µM; confirmation repeats;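 mean of two retest wells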
MT1-MMP act inh RFP = also measured in MT1-MMP act inh; calls as there; RFP signal change, %; measured here: RFP expression control read;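 0 = vehicle wells; hits needed this value within 50% of zero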
Numbers without * were called inactive; i = inactive; nt = not tested or not shown; & = joins results of further samples.

The opening 2 records, to show the layout:
SMILES | CSC inhib | Yeast UUG start | eIF4H inh | MT1-MMP act inh | MT1-MMP act inh RFP | PABP polyA inh | HIV Env fusion | Rce1 inh | others
CC1=C(C(=O)Nc2ccccc2C)C(c2cccs2)NC(=S)N1 (stereo unspecified) | 1 | nt | -6 | 1 | -2 | 2 | -2 | i
CCc1ccccc1NC1=NCC(=O)N1Cc1ccccc1 | -16 | 12 | -5 | 1 | 2 | 6 | -53 | i

Results, repeating the preview:
SMILES | CSC inhib | Yeast UUG start | eIF4H inh | MT1-MMP act inh | MT1-MMP act inh RFP | PABP polyA inh | HIV Env fusion | Rce1 inh | others
CC1=C(C(=O)Nc2ccccc2C)C(c2cccs2)NC(=S)N1 (stereo unspecified) | 1 | nt | -6 | 1 | -2 | 2 | -2 | i
CCc1ccccc1NC1=NCC(=O)N1Cc1ccccc1 | -16 | 12 | -5 | 1 | 2 | 6 | -53 | i
O=C(NCCOc1ccc(F)cc1)c1ccccc1SCc1ccccc1 | 3 | nt | 2 | 3 | 0 | 12 | 28 | i
COC(=O)C1=C(N)OC2=C(C(=O)CCC2)C1c1ccc2c(c1)OCO2 (stereo unspecified) | -18 | -7 | -4 | -2 | 1 | -5 | -73 | i
N#Cc1c2n(c3c(=O)n(Cc4ccc(Cl)cc4)cnc13)CCCCC2 | -12 | -6 | 44 | nt | nt | -2 | nt | i
NC(=O)CC(NC(=O)Cc1ccc(Cl)cc1)c1ccc(NCCc2ccccc2F)c([N+](=O)[O-])c1 (stereo unspecified) | 6 | -8 | -10 | 4 | 3 | 0 | 0 | i
CCOC1=C2[C@H](c3ccccc3F)N(S(=O)(=O)c3ccc(C)cc3)C[C@H]2n2c(=O)n(-c3ccccc3)c(=O)n2C1 | nt | 3 | nt | -2 | -1 | nt | -102 | nt
CCO/C(C)=N/Oc1cncnc1 | nt | 0 | nt | 5 | 5 | nt | 0 | nt
COC(=O)c1ccc(-c2ccc(C(c3c(C)[nH][nH]c3=O)c3c(C)[nH][nH]c3=O)o2)cc1 | nt | nt | 52 | 2 | 4 | -6 | 1 | i | eIF4H inh retest=-1;PABP polyA inh retest=-3
O=C(Nc1ccc(Cc2nc3ccccc3s2)cc1)c1ccncc1 | 12 | 0 | -4 | 4 | -27 | 0 | 41 | i
Cn1c(SCC(=O)N2CCCC2)nc2cccnc21 | -7 | -7 | -2 | 2 | 2 | -9 | 5 | i
COc1cc(C)c(NC(=S)Nc2ccc(C)c(Cl)c2)cc1OC | -1 | -32 | -5 | -1 | 4 | -6 | nt | i
CCCN1CCCc2cc(CN(CCCN3CCOCC3)C(=O)Nc3ccc(OCC)cc3)ccc21 | -12 | -7 | 4 | 1 | -4 | -1 | 34 | i
COc1ccc(NC(=O)c2sc(=O)n(Cc3ccc(SC)cc3)c2C)cc1OC | nt | -18 | nt | 4 | -3 | nt | 8 | nt
COc1ccc(OC)c(/C=C/C(=O)OCC(=O)Nc2cccc(C(C)=O)c2)c1 | -4 | nt | -3 | -1 | 3 | -2 | -2 | i
COc1ccccc1N1CCN(C(=O)C2CCN(S(=O)(=O)c3ccccc3)CC2)CC1 | -1 | 5 | -18 | 4 | 0 | -6 | nt | i
C=CCN1C(=O)C(Cc2ccc(F)cc2)S/C1=N/N=C/c1ccco1 (stereo unspecified) | -2 | nt | -7 | 8 | -1 | 8 | nt | i
Cc1ccccc1-n1c(SCC(=O)NC(N)=O)nc2sc(-c3ccccc3)cc2c1=O | nt | nt | -10 | -5 | -10 | 2 | 27 | i
COC(=O)C1CN(C(=O)C(C)Oc2ccccc2Cl)c2ccccc2O1 (stereo unspecified) | 0 | -2 | -13 | 0 | 7 | -2 | 16 | i
Cc1ccc(NC(=O)C(c2ccccc2)N(C)C)cc1Cl (stereo unspecified) | 5 | nt | 5 | -1 | 1 | 15 | nt | i
CC(=O)N1CCN(c2ccc(NC(=O)c3ccc(OCc4ccccc4)cc3)cc2)CC1 | 3 | nt | 26 | 8 | -1 | -6 | 7 | i
O=C(COC(=O)c1cccs1)NCCN1C(=O)CSC1=O | -8 | -12 | -2 | -1 | 2 | 6 | -13 | i
COC(=O)c1ccc(Nc2ncnc3sccc23)cc1 | -13 | -9 | -4 | -3 | -5 | -3 | -30 | i
COc1ccccc1OCCn1c(=O)n(C)c2ccccc21 | -13 | 1 | -4 | 6 | 2 | -3 | -5 | i
C[C@H]1CN([C@@H](C)CO)C(=O)CCCn2cc(nn2)CO[C@@H]1CN(C)C(=O)CCC(F)(F)F | nt | -14&-2 | nt | 2 | 6 | nt | -24 | nt
O=C(CC1NCCNC1=O)Nc1cccc([N+](=O)[O-])c1 (stereo unspecified) | -6 | nt | -3 | -1 | -2 | -11 | 12 | i
NC(=O)c1oc2ccccc2c1NC(=O)CS(=O)(=O)c1ccccc1 | -1 | -9 | -4 | -6 | -2 | 3 | -19 | i
O=C(Nc1cccc(S(=O)(=O)N2CCOCC2)c1)C1CCCN(C(=O)c2ccc(Cl)cc2)C1 (stereo unspecified) | -3 | 4 | 2 | 12 | -13 | 10 | 50 | i
Cc1ccc(NC(=O)NCc2cccnc2)cc1Cl | -5 | -10 | -6 | -2 | -2 | 3 | -2 | i
COc1ccc(Cn2c(=O)[nH]c3cc(C(=O)Nc4ccccc4C)ccc32)cc1 | -12 | -1 | -4 | 2 | -3 | -16 | 5 | i
O=C(O)c1ccc2c(c1)C(=O)N(c1cccc(S(=O)(=O)Nc3cccc(C(F)(F)F)c3)c1)C2=O | -11 | -3 | 3 | 2 | 1 | 11 | 8 | i
CC(=O)Nc1ccc(S(=O)(=O)N2CCN(Cc3nc4sc(C)c(C)c4c(=O)[nH]3)CC2)cc1 | 6 | -25 | -11 | 1 | -2 | 3 | -20 | i
CC1(NC(=O)CSc2nnc(-c3c[nH]c4ccccc34)n2C2CC2)CCS(=O)(=O)C1 (stereo unspecified) | -10 | -11 | nt | -2 | 0 | nt | nt | nt
Cc1ccc(S(=O)(=O)N(C)CCCC(=O)Nc2ccc(F)cc2)cc1 | 5 | 45 | 2 | -10 | -13 | 6 | 18 | i
Cc1ccc(NC(=O)C2CCCCC2C(=O)O)cc1C (stereo unspecified) | 0 | -11 | 3 | 2 | 3 | 4 | 6 | i
Cc1ccc(S(=O)(=O)NCCc2cn3nc(C)c(C)nc3n2)cc1C | -8 | -19 | 4 | -4 | -1 | -1 | -5 | i
Nc1nnc(CSCc2ccc(F)cc2)s1 | 7 | -18 | -1 | 12 | 2 | 3 | -6 | nt
Cc1nn2c(NCCCN(C)C)c3c(nc2c1-c1ccccc1)CCC3 | nt | nt | 8 | -4 | -1 | 1 | -11 | i
CCOC(=O)C1=C(N)N2C(=O)C(C)SC2=C(C(=O)OCC)C1c1ccccc1 (stereo unspecified) | -8 | 0 | -5 | 2 | 3 | 6 | nt | i
C[C@H](NC(=O)c1ccccc1Cl)C(=O)OCC(=O)NNC(=O)c1cccs1 | 13 | -19 | nt | 1 | 0 | nt | -72 | i
Cc1cccc(C(=O)Nc2nnc(COc3ccccc3)s2)c1 | 7 | nt | -3 | 3 | 0 | -8 | -6 | i
Cc1ccc2[nH]c(=O)c(CNC(C)(C)C)cc2c1 | 4 | -3 | -6 | 6 | -5 | -4 | nt | i
O=C(NC(C(=O)N1CCCC1C(=O)O)=C1CCCCC1)c1ccccc1 (stereo unspecified) | -1 | -4 | 3 | -4 | 5 | -4 | nt | i
O=C(CSc1nnnn1C1CC1)N1CCN(Cc2ccccc2F)CC1 | nt | -12 | nt | -1 | -2 | nt | -4 | nt
CCCCN(C(=O)c1cccc2c(=O)c(C)c(-c3ccccc3)oc12)c1ccccc1 | nt | nt | -2 | nt | nt | 16 | 46 | i
Cc1ccc(N2C(=O)CC(N3CCc4ccccc43)C2=O)cc1Cl (stereo unspecified) | 4 | -7 | 3 | 2 | 2 | -12 | 17 | i
Cc1ccc(NC(=O)C2CCCN(c3ncccn3)C2)cc1C (stereo unspecified) | -1 | -15 | 4 | -3 | -1 | 12 | -16 | i
CC(=O)c1ccc(S(=O)(=O)N(C)CCCC(=O)N2CCN(c3ncccn3)CC2)cc1 | nt | -15 | nt | -1 | -2 | nt | -5 | nt
O=C(COC(=O)COc1cccc(F)c1)Nc1nc2ccccc2s1 | -9 | -9 | nt | -3 | 1 | nt | 0 | nt
O=C(Nc1ccc(F)cc1)N1CCN(C/C=C/c2ccccc2)CC1 | nt | -16 | -14 | 4 | 2 | -7 | -36 | i
CCSc1nnc2ccc(-c3cccs3)nn12 | -1 | -24 | 8 | 3 | 1 | 11 | -3 | i
COC(=O)C1CCN(C(=O)c2sc3nc(-c4ccccc4)cn3c2C)CC1 | -4 | -13 | 2 | -3 | -10 | -8 | 6 | i
Cc1ccc(OCCCCN2CCCCC2)c(Br)c1 | 43 | -4 | 8 | 5 | 5 | -18 | nt | i
Cc1nc2ccccc2c2nc3ccccc3n12 | -2 | -6 | -2 | 6 | -2 | 8 | nt | i
Cc1cc(C(=O)OCC(=O)N2CCCC2)c2ccccc2n1 | -2 | -1 | -2 | 5 | 1 | 2 | nt | i
CCc1ccccc1NC1=NCC(=O)N1C1CCCC1 | 5 | nt | -6 | 0 | 4 | 3 | 3 | nt
Cc1cc(Cl)c(OCCCCNC(C)(C)C)c(Br)c1 | 4 | nt | 5 | nt | nt | 1 | nt | i
CC(C)(C)OC(=O)CNC(=O)c1[nH]cnc1C(=O)NCC(=O)OCc1ccccc1 | -4 | 10 | -9 | -4 | 8 | -9 | -36 | i
COc1ccccc1NS(=O)(=O)c1ccc(C)c(NC(=O)c2c(C)noc2C)c1 | -9 | -7 | nt | 4 | 0 | nt | nt | nt
Cc1cccc(OCC(O)CN2CCN(c3ccccn3)CC2)c1C (stereo unspecified) | 5 | -1 | -5 | -8 | 5 | -1 | 5 | i
Next results
SMILES | CSC inhib | Yeast UUG start | eIF4H inh | MT1-MMP act inh | MT1-MMP act inh RFP | PABP polyA inh | HIV Env fusion | Rce1 inh | others
O=C(Cc1csc(N2CCOCC2)n1)N/N=C/c1ccccc1C(=O)O | -19 | 0 | -10 | 3 | 4 | 13 | 5 | i
COc1cc(OC)cc(-c2nc3cc(C)ccc3o2)c1 | -10 | -27 | -1 | -1 | 2 | -14 | -164 | i
Cc1cc(C)c(S(=O)(=O)N2CCN(S(=O)(=O)N3CCOCC3)CC2)c(C)c1 | -7 | -10 | -9 | -3 | -2 | -5 | 2 | i
CCOC(=O)C1CCN(C(=O)CCNC(=O)Cn2cnc3ccccc3c2=O)CC1 | 30 | -24 | -2 | -3 | -2 | 10 | 12 | i
Cc1cccc(NC(=O)c2cc(-c3ccc(C)c(C)c3O)n[nH]2)c1 | 21 | -16 | -2 | -2 | -4 | -3 | -50 | i
Nc1ccc2c(c1)CCC2=O | nt | -6 | nt | -18 | 5 | nt | -9 | i
CC(C)COP(=O)(OCC(C)C)C(O)c1ccc(N(C)C)cc1 (stereo unspecified) | nt | -11 | -4 | 0 | -4 | 2 | 0 | i
Cc1cc2c(ncn2Cc2ccccc2)c([N+](=O)[O-])c1C | -7 | -19 | -10 | 1 | -1 | 0 | -59 | i
Cc1cc(C)n(Cc2cccc(C(=O)N/N=C/c3ccncc3)c2)n1 | -5 | -23 | 3 | -2 | -2 | -2 | -13 | nt
CC1CN(Cc2ccccc2)c2nc3c(c(=O)n(C)c(=O)n3C)n2C1 (stereo unspecified) | 6 | nt | -1 | 4 | -2 | -6 | nt | i
Cc1cccc(C(=O)O)c1NC(=O)c1ccc(F)cc1 | -10 | -10 | 0 | -2 | 3 | 2 | -25 | i
CCOc1ccccc1N(C(=O)c1snc(C(N)=O)c1N)C(C(=O)NCc1ccccc1)c1ccc(O)cc1 (stereo unspecified) | nt | -7 | -17 | -7 | -7 | -1 | -28 | i
